Screening results (PubChem BioAssay)
MARV entry inh: qHTS for inhibitors of binding or entry into cells for Marburg Virus; AID 540276, 2011; Marburg virus pseudotyped entry inhibition, cell reporter; control for the full effect not named in the record; about a third of the inactives were read at about 46 µM; Potency, µM (top dose mostly 37.8 µM), without a hit: top-dose activity change, negative = inhibition, most hits filed as inhibitors; hit rate 1.8% among 300,000; active = well fitted inhibition curve with a large enough effect; inconclusive = small, poorly fitted or top-dose-only effect, or effect the other way; inactive = flat fitted curve, though single readings scatter; tested in HEK293 cells; about a fifth of its hits are not listed in these tables; further: luciferase read-out
RE007 growth inh: qHTS Assay for Inhibitors of the HIV-1 protein Vpr; S. pombe RE007 Vpr strain, BacTiter-Glo ATP luminescence, 24 h; control for the full effect not named in the record; Potency, µM (doses to about 92.2 µM), without a hit: top-dose activity change, negative = less growth; hit rate 0.21% among 360,000; active = well fitted falling curve with a large enough effect; inconclusive = small, poorly fitted or top-dose-only effect; inactive = no such curve, though single readings can be large or run the other way;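 further: nearly all actives have a fitted effect of over 50% in size; the assay follows cell death caused by Vpr and the record does not say whether a fall means rescue or toxicity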
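Fission yeast RE007 carrying one integrated HIV-1 vpr copy, seeded at OD 0.01 in PMG+AL medium with 23 nL pinned compound. Grown 24 h at 30 degrees; viability read by BacTiter-Glo luminescence after 5 min.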
2A StopGo: High Throughput Screening for Foot and Mouth Disease Virus Antivirals; human cells with a luciferase reporter of 2A StopGo recoding; control for the full effect not named in the record; Potency, µM (series often up to 57.9 µM), inactives show top-dose signal change, negative = less light; hit rate 1.2% among 410,000; AID 1159524, 2015; active = well fitted falling curve with a large enough effect; inconclusive = small, poorly fitted or top-dose-only effect; inactive = no such curve, though single readings can be large or run the other way; tested in HEK293T cells; further: nearly all actives have a fitted effect of over 45% in size; luciferase light after 4 h
Lassa entry inh: qHTS for Inhibitors of binding or entry into cells for Lassa Virus; hit rate 1.2% among 300,000; Potency, µM (series often up to 37.9 µM), inactives show at the highest dose activity change, negative = inhibition, most hits filed as inhibitors; AID 540256, 2011; Lassa virus pseudotype entry inhibition, cell reporter; control for the full effect not named in the record; active means well fitted inhibition curve with a large enough effect; inconclusive means small, poorly fitted or top-dose-only effect, or effect the other way; inactive means flat fitted curve, though single readings scatter; tested in HEK293 cells; further: nearly all actives have a fitted effect of over 50% in size; luciferase read-out
Numbers without * were called inactive; ? = inconclusive; nt = no result given; [ ] = dose if it differs, or a comment. On the % scale 0 is the no-effect control and ±100 the full control effect; potency means the concentration at half of the fitted maximal effect.

SMILES | MARV entry inh | RE007 growth inh | 2A StopGo | Lassa entry inh
CC(=O)Nc1ccc(NC(=O)C(Cc2ccccc2)N2Cc3ccccc3C2=O)cc1 (stereo not drawn) | nt | nt | 1% | -20%[46.1 µM]
CCN(CC)c1cc2c(cc1F)c(=O)c(S(=O)(=O)c1ccc(OC)cc1)cn2CC | nt | nt | -1% | -9%[46.1 µM]
CCc1ccc(NC(=O)CSc2nnc(-c3cc4occc4n3C)n2-c2ccccc2C)cc1 | nt | nt | 4% | ?
CCC1CN(C(=O)Nc2cc(OC)cc(OC)c2)c2ccccc2S1 (stereo not drawn) | nt | nt | -13% | 11%[46.1 µM]
CCOC(=O)c1cccc(NS(=O)(=O)c2ccc3[nH]c4c(c3c2)CCCC4)c1 | nt | nt | 29% | -29%[46.1 µM]
CCc1ccc(S(=O)(=O)c2cn(C)c3cc(N4CCCCC4C)c(F)cc3c2=O)cc1 (stereo not drawn) | nt | nt | -9% | -5%[46.1 µM]
CCOc1ccc(CCNC(=O)c2ccc(-n3c(C)cc4c3CCCC4)cc2)cc1OCC | nt | nt | -20% | ?
CCN1CCC(N(Cc2cccc(OC)c2)C(=O)Nc2ccc(C)cc2Cl)CC1 | nt | nt | -7% | -20%[46.1 µM]
CC1=C(C(=O)NCc2ccccc2F)C2(CCCCC2)OC1=O | nt | nt | -4% | -3%[46.1 µM]
Cc1cccc(CSc2nc3cccnc3n2Cc2ccc(C(=O)NCc3ccco3)cc2)c1 | nt | nt | 11% | -1%[46.1 µM]
CCOC(=O)c1cccc(NC(=O)N2CCC(CN3CCc4ccccc4C3)CC2)c1 | nt | nt | 1% | -13%[46.1 µM]
COc1ccc(CNC(=O)C(C(C)C)N2Cc3ccccc3C2=O)cc1 (stereo not drawn) | nt | nt | -19% | 0%[46.1 µM]
COc1ccc(Cl)cc1NC(=O)C1CCN(S(=O)(=O)c2ccc3c(c2)CC(C)N3C(C)=O)CC1 (stereo not drawn) | nt | nt | ? | -8%[46.1 µM]
COc1ccc(NC(=O)Cn2c(SCc3ccc(C)cc3)nc3cccnc32)cc1OC | nt | nt | -15% | ?
CCCN1CCN(CCCNC(=O)Cn2c(-c3cccs3)cc3cc(Cl)ccc32)CC1 | nt | nt | -23% | ?
Cc1ccccc1Cn1c(C(=O)O)c(CNCc2cccc(F)c2)c2ccccc21 | nt | nt | 26% | 2%[46.1 µM]
CCOC(=O)c1ccccc1NC(=O)Cn1ncc2c([nH]c3ccccc32)c1=O | nt | nt | -2% | -20%[46.1 µM]
Cc1ccc(C)c(N2CCN(S(=O)(=O)c3ccc4[nH]c5c(c4c3)CCCC5)CC2)c1 | nt | nt | -16% | -25%[46.1 µM]
CCn1cc(S(=O)(=O)c2cc(C)cc(C)c2)c(=O)c2cc(F)c(N3CCCCC3)cc21 | nt | nt | 26% | 19%[46.1 µM]
CCCn1cc(S(=O)(=O)c2cccc(Cl)c2)c(=O)c2cc(F)c(N3CCOCC3)cc21 | nt | nt | 19% | 12%[46.1 µM]
CCOC(=O)c1ccc(NC(=O)Cn2cc(S(=O)(=O)Cc3ccccc3F)c3ccccc32)cc1 | nt | nt | -7% | -1%[46.1 µM]
c1ccc(CSc2nc3ncccc3[nH]2)cc1 | nt | nt | 37%[activator] | 2%[46.1 µM]
COc1cccc(CNC(=O)COCc2cc(-c3ccc4c(c3)OCO4)on2)c1 | nt | nt | 3% | -28%[46.1 µM]
CC(=O)c1cccc(NS(=O)(=O)c2cc3c(cc2C)n(C)c(=O)c(=O)n3C)c1 | nt | nt | 7% | 24%[46.1 µM]
CC(=O)c1ccc(NC(=O)Cn2cc(S(=O)(=O)Cc3ccccc3Cl)c3ccccc32)cc1 | nt | nt | 0% | 15%[46.1 µM]
CCCn1cc(S(=O)(=O)c2ccc(C)c(C)c2)c(=O)c2cc(F)c(N3CCCCC3)cc21 | nt | nt | 5% | -2%[46.1 µM]
Cc1ccc(Cl)cc1N1CCN(C(=O)Cn2c(-c3cccs3)cc3cc(F)ccc32)CC1 | nt | nt | -8% | 1%[46.1 µM]
Cc1cc2c(n1-c1ccc(C(=O)NCc3cccc(Br)c3)cc1)CCC(C)C2 (stereo not drawn) | nt | nt | 19% | ?
Cc1ccc(Nc2ncnc3c2nc2n3CCCC2)cc1F | nt | nt | 21% | 24%[46.1 µM]
COc1cc(NC(=O)CN(C)S(=O)(=O)c2ccc3[nH]c4c(c3c2)CCCC4)cc(OC)c1OC | nt | nt | ? | -17%[46.1 µM]
COc1ccc(OC)c2sc(N(CCCN(C)C)C(=O)c3ccco3)nc12 | nt | nt | -8% | 9%[46.1 µM]
CCN(CC)CCNC(=O)c1ccc(Cn2c(SCc3ccccc3)nc3cccnc32)cc1 | nt | nt | 20% | 17%[46.1 µM]
Cc1cc2c(cc1S(=O)(=O)C(C)CC(=O)NC1CCC(C)CC1)OCC(=O)N2 (stereo not drawn) | nt | nt | 3% | 26%[46.1 µM]
COc1ccc(N2CCN(C(=O)Cn3c(-c4cccs4)cc4ccccc43)CC2)cc1 | nt | nt | -21% | 12%[46.1 µM]
Cc1ccc(Cl)cc1NC(=O)Cn1cc(S(=O)(=O)Cc2ccccc2Cl)c2ccccc21 | nt | nt | 11% | -2%[46.1 µM]
CCC(NC(=O)Nc1cccc(C)c1)c1c(-n2cccc2)sc2c1CCN(C)C2 (stereo not drawn) | nt | nt | -2% | -11%[46.1 µM]
CCN(Cc1ccccc1)C(=O)Cn1cc(S(=O)(=O)Cc2cccc(Cl)c2)c2ccccc21 | nt | nt | 24% | -16%[46.1 µM]
CCc1ccc(CNc2ncnc3c2nc2n3CCCC2)cc1 | nt | nt | -17% | 4%[46.1 µM]
Cc1cccc(CSc2nc3cccnc3n2Cc2ccc(C(=O)NCc3cccs3)cc2)c1 | nt | nt | -28% | -16%[46.1 µM]
Cc1cccc(S(=O)(=O)c2cn(Cc3ccccc3)c3cc(N4CCCC(C)C4)c(F)cc3c2=O)c1 (stereo not drawn) | nt | nt | -2% | -1%[46.1 µM]
O=C(Cn1c(-c2cccs2)cc2ccccc21)NCCCN1CCN(c2cccc(Cl)c2)CC1 | nt | nt | -25% | -3%[46.1 µM]
COc1ccc(C)cc1NC(=O)N1CCC(CN2CCOCC2)CC1 | nt | nt | -10% | 15%[46.1 µM]
CSc1cccc(NC(=O)C(c2ccccc2)N2Cc3ccccc3C2=O)c1 (stereo not drawn) | nt | nt | 46%[activator] | -11%[46.1 µM]
COc1ccc(NC(=O)C(C)N2Cc3ccccc3C2=O)cc1OC (stereo not drawn) | nt | nt | -8% | 1%[46.1 µM]
Cc1ccc(CNC(=O)c2nc(-c3ccc(Cl)cc3)n3c2CCCCC3)cc1 | nt | nt | -22% | ?
CC(=O)c1cccc(NC(=O)N2CCC(CN3CCCCC3)CC2)c1 | nt | nt | -4% | -3%[46.1 µM]
CN(CC(=O)Nc1cccc(Cl)c1)S(=O)(=O)c1ccc2[nH]c3c(c2c1)CCCC3 | nt | nt | -28% | -13%[46.1 µM]
Cc1cc(C)cc(Nc2ncnc3c2nc2n3CCCC2)c1 | nt | nt | 8% | -8%[46.1 µM]
Cc1cccc(Cn2cc(S(=O)(=O)c3cccc(Cl)c3)c(=O)c3cc(F)c(N4CCOCC4)cc32)c1 | nt | nt | 3% | -1%[46.1 µM]
Cc1ccc(CNc2ncnc3c2nc2n3CCCC2)cc1 | nt | nt | -4% | -10%[46.1 µM]
Cc1ccc(S(=O)(=O)c2nnn3c2nc(N2CCN(c4cccc(C)c4C)CC2)c2ccccc23)cc1C | nt | nt | 0% | 8%[46.1 µM]
O=C(Cn1cc(S(=O)(=O)Cc2ccccc2F)c2ccccc21)NCc1ccccc1 | nt | nt | 7% | 18%[46.1 µM]
COC(=O)CNC(=O)c1ccccc1[N+](=O)[O-] | 8% | -12% | nt | 1%
O=C(N/N=C/C=C/c1ccccc1)C(O)c1ccccc1 (stereo not drawn) | 6% | -4% | nt | 14%
CC1C(c2cccs2)=[N+]([O-])C(C)(C(=O)c2ccc(F)cc2)N1O (stereo not drawn) | -18% | 8% | nt | 20%
CC1CCCN(C(=O)c2ccc(S(=O)(=O)N3CCC(c4nc5ccccc5s4)CC3)cc2)C1 (stereo not drawn) | ? | 4% | nt | ?
CCc1nc(N2CCN(S(=O)(=O)c3ccc(Br)cc3)CC2)c2c(C)c(C)sc2n1 | 6% | -3% | nt | -40%
CCOc1ccc2[nH]cc(C(=O)N3CCN(C4CCCCC4)CC3)c(=O)c2c1 | -18% | 9% | nt | 1%
O=C(NCCc1ccccc1)C1CCCN1S(=O)(=O)c1ccc(F)cc1 (stereo not drawn) | 14% | -8% | nt | -12%
O=C(Cc1ccccc1)NCC1COc2ccccc2O1 (stereo not drawn) | -26% | 12% | nt | -2%
More compounds
SMILES | MARV entry inh | RE007 growth inh | 2A StopGo | Lassa entry inh
CC(/C=C/c1ccc2c(c1)OCO2)=N/NC(=O)CNc1ccc(C)cc1 | 2% | -7% | nt | ?
Cc1cc(C)c2cc(C#N)c(N3CCCN(S(=O)(=O)c4ccccc4)CC3)nc2c1 | 0% | -8% | nt | -4%
CC(C)NC(=O)C1(C)CCN1C(=O)C1(c2ccccc2)CCCC1 (stereo not drawn) | nt | -7% | -12% | nt
CC(O)(c1cccnc1)c1nc(-c2cc(F)cc(F)c2)cs1 (stereo not drawn) | nt | 40% | -23% | nt
COc1cccc(N2CCN(C(=O)c3ccc(OC)c(S(=O)(=O)NC4CC4)c3)CC2)c1 | nt | -4% | 57%[activator] | nt
O=C1C=C(c2ccccc2Oc2ccccc2)C[C@@H](c2ccc(F)cc2)C1 | nt | 0% | 0% | nt
O=C1NCC(=O)N2CCC[C@@H]12 | nt | 3% | -12% | nt
CCCCn1c(N)c(N(CC(C)C)C(=O)CSc2nn(-c3ccc(F)cc3)c(=S)s2)c(=O)[nH]c1=O | nt | 9% | -21% | nt
COc1ccc(-c2c(-c3ccc4c(c3)OCO4)c3ccccc3n2C)cc1 | nt | -14% | -23% | nt
CC(C)C[C@H]1CNC(=S)N1C[C@H]1CCCN1C[C@H](Cc1ccc(O)cc1)N1C[C@H](Cc2ccc(O)cc2)N(CC2CCCCC2)C1=S | nt | -10% | -18% | nt
COc1cc2oc(=O)cc(CN3CCN(c4ccccc4F)CC3)c2cc1Cl | nt | 4% | -14% | nt
O=C(COC(=O)Cc1ccc(Cl)cc1)NCc1ccc(Cl)cc1 | nt | -10% | -29% | nt
Nc1[nH]c(C(=O)c2ccccc2)c(-c2cccnc2)c1C(=O)NCCc1ccc(Cl)cc1Cl | nt | 23% | ? | nt
CCCS(=O)(=O)NC(=O)C1(C)CCCN(C(=O)c2ccc(F)c(Cl)c2)C1 (stereo not drawn) | nt | 9% | -12% | nt
O=C(Nc1ccc2c(c1)OCCO2)c1ccccc1Cl | nt | -7% | 28% | nt

Whole records, quoted from the list. Order of values: MARV entry inh, RE007 growth inh, 2A StopGo, Lassa entry inh
Results for CC(=O)Nc1ccc(NC(=O)C(Cc2ccccc2)N2Cc3ccccc3C2=O)cc1 (stereo not drawn) = nt, nt, 1%, -20%[46.1 µM]
Results for CCCCn1c(N)c(N(CC(C)C)C(=O)CSc2nn(-c3ccc(F)cc3)c(=S)s2)c(=O)[nH]c1=O = nt, 9%, -21%, nt

Continued.
SMILES | MARV entry inh | RE007 growth inh | 2A StopGo | Lassa entry inh
O=C(COC(=O)c1cccc(S(=O)(=O)N2CCOCC2)c1)NC1CCCCC1 | nt | -5% | 1% | nt
CCCCNC(=O)C1(C)CCC(=O)N1c1cc(C(C)(C)C)nn1C (stereo not drawn) | nt | 6% | -4% | nt
COc1ccc(Cc2nc3ccc(C(=O)NC4CCOC4)cc3o2)cc1OC (stereo not drawn) | nt | 4% | 0% | nt
CC(C)C[C@@H]1COc2cc(N3CCC[C@H]3CO)ccc2S(=O)(=O)N1 | nt | 3% | 6% | nt
CN(Cc1ccccc1)C(=O)[C@@H]1CCCN1C(=O)[C@@H]1CCCN1C(=O)c1c(F)cccc1F | nt | -10% | -13% | nt
COC(=O)C1=C(c2ccc(OCc3ccccc3)cc2)C[C@@H]2CC[C@H]1N2C(=O)NCc1ccc2c(c1)OCO2 | nt | 10% | ? | nt
CC(=O)C1=CCC(c2ccccc2Cl)N(S(=O)(=O)c2ccc(C)cc2)C1 (stereo not drawn) | nt | 5% | ? | nt
COc1cccc(-c2cnc3c(NC(C)=O)cc(-c4cccc(NS(C)(=O)=O)c4)cn23)c1 | nt | 2% | -2% | nt

Not all compounds are listed (hit frequency here may not be typical).
